Bioassay records from PubChem BioAssay.
KCNQ2 enhance: enhances the rat KCNQ2 potassium channel. 310,000 tested, 0.54% active. B-score at 10 µM. CHO-K1 KCNQ2, FluxOR thallium flux fluorescence; active compounds read high. O88943;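 active = fluorescence ratio B-score at least 3 SD of library B-scores, with initial fluorescence B-score within 3 SD, cut at about 5.3 in these data; same plate scores as AID 2156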;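 also: B-score of peak minus minimum over baseline fluorescence ratio after K+ and Tl+ stimulus; positive B-score means potentiation of KCNQ2 with more thallium influx and brighter signal; only the inactives scoring about 0 or higher are listed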
Target sequence (O88943 whole entry, looked up): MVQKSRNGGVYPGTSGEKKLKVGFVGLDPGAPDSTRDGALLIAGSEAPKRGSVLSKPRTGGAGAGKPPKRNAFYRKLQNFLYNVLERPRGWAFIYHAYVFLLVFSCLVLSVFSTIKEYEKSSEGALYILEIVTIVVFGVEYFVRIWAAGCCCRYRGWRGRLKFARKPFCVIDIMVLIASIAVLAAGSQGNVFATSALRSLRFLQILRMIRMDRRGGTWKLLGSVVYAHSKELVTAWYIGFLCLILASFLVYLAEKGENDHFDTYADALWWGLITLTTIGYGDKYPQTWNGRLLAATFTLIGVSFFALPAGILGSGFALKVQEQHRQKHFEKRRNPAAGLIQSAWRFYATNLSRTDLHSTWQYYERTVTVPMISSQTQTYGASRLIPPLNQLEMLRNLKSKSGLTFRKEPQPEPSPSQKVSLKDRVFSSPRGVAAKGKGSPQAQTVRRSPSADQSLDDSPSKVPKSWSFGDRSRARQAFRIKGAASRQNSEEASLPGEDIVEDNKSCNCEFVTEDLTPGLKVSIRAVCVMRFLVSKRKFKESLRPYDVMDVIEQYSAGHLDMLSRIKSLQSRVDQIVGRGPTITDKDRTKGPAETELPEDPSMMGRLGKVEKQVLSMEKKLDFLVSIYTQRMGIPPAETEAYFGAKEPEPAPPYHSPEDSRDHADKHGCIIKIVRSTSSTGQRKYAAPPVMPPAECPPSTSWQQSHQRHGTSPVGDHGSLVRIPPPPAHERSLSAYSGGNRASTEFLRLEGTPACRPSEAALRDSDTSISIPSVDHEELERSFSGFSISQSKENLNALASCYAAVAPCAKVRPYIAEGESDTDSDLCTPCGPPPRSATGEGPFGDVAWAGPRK
KCNQ2 enhance baseline: also measured in KCNQ2 enhance; calls as there; B-score; compound at 10 µM; measured here: initial fluorescence intensity artifact check;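 brightness before thallium and not channel activity; 0 = typical well and far values either way flag optical interference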
Starred values were filed as active, the others as inactive; / = no result given.

SMILES,KCNQ2 enhance baseline,KCNQ2 enhance
N#C/C(=C(/O)COc1cccc2ccccc12)c1nc2ccccc2[nH]1,1.04,1.82
CN(Cc1ccccc1)C(=O)C1CCN(S(=O)(=O)c2cccc3nsnc23)CC1,0.03,0.09
Cc1ccc(CNC(=O)CCc2c(C)nc3ncnn3c2C)cc1,-0.15,1.14
CCN(CC)S(=O)(=O)c1cccc(C(=O)N/N=C/c2ccc(N3CCOCC3)cc2)c1,-1.55,0.69
COc1ccccc1N1CCN(Cc2cc(=O)c(OCC(=O)NC3CCCC3)co2)CC1,-1.16,1.38
CC(C)(C)OC(=O)C(C(=O)OC(C)(C)C)c1ccc(Cl)nn1,-2.41,0.03
Cc1nc(C(=O)N/N=C/c2[nH]ncc2Br)cs1,3.55,0.55
Cc1nn(CC(=O)N(C)C2CCS(=O)(=O)C2)c(C)c1[N+](=O)[O-] (stereo not given),0.01,0.15
COc1cc(/C=N/n2c(SC)nnc(C(C)(C)C)c2=O)ccc1O,0.89,1.37
CCCNS(=O)(=O)c1ccc(OCC(=O)OC)cc1,0.11,0.03
CCC(=O)NC(Nc1cccc(C)n1)(C(F)(F)F)C(F)(F)F,0.48,0.04
Cc1ccc(NC(=O)/C=C\C(=O)NCC(=O)O)cc1C,-1.4,0.43
CCN1C(=O)CC(C(=O)O)SC1=Nc1ccc(OC)cc1 (stereo not given),1.43,0.49
CCNc1nc(NCC)nc(N(C#N)C(C)C)n1,1.87,0.22
CCOC(=O)/C(=N\Nc1cc(Cl)ccc1Cl)N1CCOCC1,-0.14,0.82
CCOC(=O)c1c(C)n(C(=O)c2ccco2)c(=O)n1C(=O)c1ccco1,1.05,1.34
CCn1c(SCC(=O)NCc2ccc(F)cc2)nc2c(c1=O)SC(C)C2 (stereo not given),0.16,0.51
Cc1ccn2c(=O)c(NC(=O)COc3ccccc3)c(C)nc2c1,1.54,0.02
O=C(NCCN1CCOCC1)C(=O)c1c[nH]c2ccccc12,0.43,0.8
O=C1OCCC1Sc1nnc(-c2ccc(Cl)cc2Cl)o1 (stereo not given),1.98,3.71
CC(=O)OCC(=O)C1(O)CCC2C3CCC4=CC(=O)C=CC4(C)C3C(O)CC21C (stereo not given),-1.02,0.43
CC(C)C(c1nnnn1Cc1cccs1)N1CCN(C2CCCC2)CC1 (stereo not given),-0.31,0.7
COc1ccc(CCNC(=O)CCc2nc3sc4c(c3c(=O)[nH]2)CCCC4)cc1,-0.26,0.06
COc1cccc(NC(=O)Cn2cc(C(=O)C3CC3)c3ccccc32)c1,-0.41,1.2
COc1cc(NC(=O)COC(=O)c2ccc(S(=O)(=O)N3CC(C)CC(C)C3)cc2)c(C)cc1[N+](=O)[O-] (stereo not given),-0.05,0.62
O=C(NC(=S)Nc1cc(C(F)(F)F)ccc1N1CCOCC1)c1ccco1,3.24,3.18
COc1cccc(CN2CCNC(=O)C2CC(=O)N(C)CCc2ccccn2)c1OC (stereo not given),0.24,0.93
O=C(c1cccc2ccccc12)N1CCN(c2ccc([N+](=O)[O-])c(N3CCOCC3)c2)CC1,0.06,1.87
O=[N+]([O-])c1ccc2nc(NS(=O)(=O)c3ccccc3[N+](=O)[O-])sc2c1,-0.03,1.14
COc1cccc(N2[C@@H](CC(=O)O)c3ccc(/C=C/C(=O)O)cc3S2(=O)=O)c1,-2.84,0.89
CC1(C)Cc2nc(N)c(=O)sc2C1,0.18,0.6
O=C(O)c1ccccc1/C=N/N1CCN(C2c3ccccc3-c3ccccc32)CC1,-0.6,0.29
CC1CCC(C(C)C)C(OC(=O)Cn2c(-c3ccc(Br)cc3)[n+](C)c3ccccc32)C1 (stereo not given),/,-5.59
O=C(CN1CCN(Cc2ccccc2Cl)C1=O)NCc1ccco1,-0.89,0.7
CCOc1ccc(NC(=O)c2sc3nc(N4CCOCC4)c4c(c3c2N)CC(C)(C)OC4)cc1,3.15,1.76
CCOC(=O)C1CCN(C(=O)COc2cc(C)c(Br)cc2C)CC1,-0.84,0.03
CCN(CC)c1ccc(CN(C(=O)c2ccco2)C2CCS(=O)(=O)C2)cc1 (stereo not given),-0.62,0.03
Cc1cc(-n2cnnn2)cc(C)c1S(=O)(=O)N(C)c1ccccc1,-1.13,1.16
COC(=O)Cn1cnc2scc(-c3ccc(C)cc3)c2c1=O,2.53,0.84
Cc1ccc(CC2C(=O)N(CC(=O)O)C(=O)C2C)cc1 (stereo not given),3.55,0.5
CC(NC(=O)c1cc(-c2cccs2)on1)c1ccccc1 (stereo not given),-1.15,0.57
O=C(CCNc1n[nH]c(=O)[nH]c1=O)N1CCCCC1,2.25,0.88
O=C(O)C1C2CCC(O2)C1C(=O)Nc1ccc(OC(F)F)cc1 (stereo not given),-0.38,0.02
COc1ccc(C(c2sc3nc(C)nn3c2O)N2CCc3ccccc3C2)cc1 (stereo not given),0,0.49
CCOC(=O)N1CCN(C(=O)COC(=O)C2CCN(S(=O)(=O)c3c(Cl)cccc3Cl)CC2)CC1,-1.54,1.71
COc1ccc(N2CCN(C(=O)C(=O)c3c(C)n(C)c4ccccc34)CC2)cc1,0.59,0.15
COc1ncccc1-c1nnn(-c2ccc(F)cc2)n1,-2.59,0.83
CCCc1nc2ccccc2c(=O)n1NC(=O)c1c(O)c2cccc3c2n(c1=O)CCC3,2.49,0.07
O=C(NN(C(=O)C1CC1)c1nc2ccccc2s1)C1CC1,-0.41,0.96
CCOc1cc(C(C(=O)NCC2CCCO2)N(C(=O)Cn2nnc3ccccc32)c2ccccc2C)ccc1O (stereo not given),-1.72,0.25
C=CCn1c(C)cc(C)c(C#N)c1=O,0,0.77
N#Cc1c(-c2ccco2)ccn(Cc2ccc(F)cc2)c1=O,-1.2,0.78
CN(C)C(=O)c1ccc(N/C=C(\C=O)c2nc3ccccc3o2)cc1,-2.66,1.05
O=C(c1ccc(Cn2cc([N+](=O)[O-])cn2)o1)N1N=C(C(F)F)CC1(O)C(F)F (stereo not given),0.43,0.68
O=C(Cc1cccs1)Nc1ccccc1C(=O)O,0.48,0.26
Cc1ccc(NC(=O)c2cccc(Oc3ccc([N+](=O)[O-])cc3)c2)c(C(=O)O)c1,-0.41,1.17

The list goes on:
SMILES,KCNQ2 enhance baseline,KCNQ2 enhance
C[n+]1cccc(O)c1SCc1ccccc1,-1.59,0.79
C=CCn1c(SCc2c(C)noc2C)nc2cc(C(=O)O)ccc2c1=O,0.34,0.07
O=C(c1cnn2c(C(F)(F)F)cc(-c3cccs3)nc12)N1CCOCC1,-0.04,1.37
CCOc1ccc(NC(=O)C2CCCN(C)C2)cc1 (stereo not given),-2.16,0.13
COc1ccc(/C=C/C(=O)N2CC(C)OC(C)C2)cc1OC (stereo not given),0.29,0.66
Cc1[nH]c2ccc(C(=O)OC(C)C(=O)N(C)c3ccccc3)cc2c1C (stereo not given),0.75,1.53
Cc1ccccc1NC(=O)CSc1nc(N)c2c3c(sc2n1)CSC(C)(C)C3,0.53,0.52
CC1CCCN(C(=O)CN(C)S(=O)(=O)c2ccc3c(c2)c(=O)n(C)c(=O)n3C)C1 (stereo not given),-0.51,1.49
O=C(CSc1cccc2cccnc12)OCC(=O)c1ccccc1,-1.34,2.02
CN(Cc1ccccc1)c1ccc([N+](=O)[O-])cc1C(=O)O,-0.43,1.4
O=C(Nc1ccc(S(=O)(=O)N2CCOCC2)cc1)c1cccc(Br)c1,0.81,0.02
Cc1ccccc1Cc1c(C)nc2ncnn2c1C,-0.4,0.25
CN(CCO)CCC(=O)NC1(C)CS(=O)(=O)CC1S(=O)(=O)O (stereo not given),-0.04,0.33
CCCC1C(C(=O)OCC)=C(C)NC(C)=C1C(=O)OCC,-0.27,0.11
CCC/C(O)=C1\C(=O)CCCC1=NCCCCCC(=O)O,2.82,0.02
CCOCCCNC(=O)C(c1ccc(Cl)cc1)N1CCC2(CC1)OCCO2 (stereo not given),-0.01,0.45
C/C=C1\COC(C(=O)NCCCN2CCCC2=O)(C(F)(F)F)C=C1C=C(C)C (stereo not given),0.54,1.87
CCC(CC)NC(=O)c1cc(OC)c(OC)cc1[N+](=O)[O-],-2.13,0.11
C=CCNC(=O)CN1CCC(n2c(C)nc3cc(C(F)(F)F)ccc32)CC1,-1.56,3.1
CCN(Cc1ccccc1)S(=O)(=O)c1cc(C(=O)O)ccc1OC,-0.68,1.67
O=C(O)CCCNC(=O)CCCn1nnc2ccccc2c1=O,-0.49,1.25
CC(C)N1CCC(n2nccc2NC(=O)c2ccc3c(c2)OCO3)CC1,-0.19,1.16
Cc1cc(N)n(Cc2ccc(Cl)cc2)n1,0.42,0.73
O=C(Cc1ccccc1)NNc1c2ccccc2nc2ccccc12,-2.89,0.05
O=C(NCc1ccco1)NC12CC3CC(CC(C3)C1)C2,0.23,1.52
COCC(C)NC(=O)C(C)Oc1ccccc1 (stereo not given),-0.58,1.59
Cc1ccc(NC(=O)c2ccc(S(=O)(=O)N3CCOCC3)cc2)nc1,-0.2,1.23
CCN(CCn1cccn1)C(=O)CC1C(=O)NCCN1Cc1ccc(F)c(F)c1 (stereo not given),-0.01,0.09
CCC(=O)Nc1ccc2nc(C)n(Cc3ccccc3Cl)c(=O)c2c1,0.39,1.19
Cc1ccc(-n2c(-c3ccccc3)n[nH]c2=S)cc1,1.33,2.25
Cc1cccc(C(=O)N2CCN(c3ccc([N+](=O)[O-])c(N4CCOCC4)c3)CC2)c1,-3.74,1.17
O=C(COC(=O)c1cc[n+]([O-])cc1)Nc1ccccc1Cl,0.04,0.93
CC(=O)c1cccc(Nc2cc(C)nc3ccccc23)c1,0.19,0.95
CN1C(=O)/C(=C\c2ccncc2)SC1=Nc1ccccc1,-0.65,0.86
Cn1c(=O)cc(OCC(=O)N2CCN(c3ccccc3F)CC2)c2ccccc21,-1.07,1.37
COCCNc1nnc(SC(C)C(=O)Nc2c(C)n(C)n(-c3ccccc3)c2=O)s1 (stereo not given),-0.65,1.5
CC(C)OC(=O)c1cc2ccccc2[nH]1,-0.33,0.7
COc1ccc(Cl)cc1NC(=O)CNCC(c1ccccc1)N(C)C (stereo not given),0.11,0.08
N#CC1=C2SCN(c3ccccc3)CN2C(=O)CC1c1ccccc1Cl (stereo not given),0.56,0.95
Cc1cnn(CCC(=O)NNC(=S)Nc2cccc(Cl)c2)c1,-0.2,0.26
N#CCCN1CCn2c1nc1ccccc12,-0.58,0.11
O=C(CSc1ccc2nnc(-c3cccnc3)n2n1)NCc1ccc2c(c1)OCO2,-0.86,0.06
COc1c(-c2ccc([N+](=O)[O-])cc2[N+](=O)[O-])c(=O)n(C)c(=O)n1C,1.29,0.43
COc1cc(CN2CCN(C(O)(c3ccccc3)c3ccccc3)CC2)cc(OC)c1OC,-0.34,1.41
O=C(N/N=C/C=C/c1ccco1)C(O)c1ccccc1 (stereo not given),0.19,0.18
CCCN(C(=O)c1cccc(S(=O)(=O)N2CCN(Cc3ccccc3)CC2)c1)C1CCS(=O)(=O)C1 (stereo not given),2.64,0.49
COc1ccc2c(C(=O)CN3CCN(c4ccccc4)CC3)c[nH]c2c1,-0.57,0.36
COc1cc2c(cc1OC)[C@@H](Cc1ccc(OCCC#N)cc1)N(C)CC2,0.92,0.09
CCC(C)NC(=O)CSc1nc2c(sc3ccccc32)c(=O)n1CCCN1CCOCC1 (stereo not given),-2.04,0.35
O=C(NNC(=S)NC(=O)c1ccccc1[N+](=O)[O-])c1ccccc1Cl,0.5,0.24
Cc1ccc(SC(C)C(=O)Nc2ccncc2)cc1 (stereo not given),2.05,1.8
S=c1[nH]nc(C2CCCCC2)n1/N=C/c1ccncc1,-0.76,0.24

Not a retest: an excerpt of the list.
SMILES,KCNQ2 enhance baseline,KCNQ2 enhance
CCCN(C(=O)c1cccc(S(=O)(=O)N2CCN(Cc3ccccc3)CC2)c1)C1CCS(=O)(=O)C1 (stereo not given),2.64,0.49
COc1ccc2c(C(=O)CN3CCN(c4ccccc4)CC3)c[nH]c2c1,-0.57,0.36
COc1cc2c(cc1OC)[C@@H](Cc1ccc(OCCC#N)cc1)N(C)CC2,0.92,0.09
CCC(C)NC(=O)CSc1nc2c(sc3ccccc32)c(=O)n1CCCN1CCOCC1 (stereo not given),-2.04,0.35
O=C(NNC(=S)NC(=O)c1ccccc1[N+](=O)[O-])c1ccccc1Cl,0.5,0.24
Cc1ccc(SC(C)C(=O)Nc2ccncc2)cc1 (stereo not given),2.05,1.8
S=c1[nH]nc(C2CCCCC2)n1/N=C/c1ccncc1,-0.76,0.24

A portion of the library; the hit share may differ from the screen's.
